Screening results deposited in PubChem by National Center for Advancing Translational Sciences (NCATS).
Rango complex inh – prevents formation of the Rango-importin beta complex; Rango CFP/YFP FRET sensor + importin beta, 45 min; Potency, µM (top dose mostly 92.2 µM), for the others: at the highest dose inhibition of complex formation; 0.031% of 340,000 active; AID 540263; active = rising FRET ratio curve, often small or poorly fitted; inconclusive = mostly compound fluorescence or quenching in the first reads; inactive = flat curves in all reads;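 further: potency means the concentration at half of the fitted maximal effect; 0% = DMSO wells and 100% = buffer wells lacking importin beta; nearly all actives have a fitted effect of over 15% in size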
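FRET biosensor Rango (snurportin 1 IBB between N-terminal EYFP and C-terminal Cerulean), 50 nM in PBS/1 mM DTT/0.02% Tween-20/0.1% BSA, preincubated 5 min RT with compound; 0.125 microM importin beta added, 45 min RT, CFP/YFP FRET ratio read.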
Rango release inh – inhibitors of RanGTP-induced Rango-importin beta complex dissociation; 0.071% of 340,000 active; Biochemical FRET Rango-importin beta, RanGTP-induced dissociation; O95149+P62826; Potency, µM (highest dose often 46.1 µM), inactives show at the top dose activity change, negative = inhibition; active means falling FRET ratio curve, often poorly fitted, with flat reads before Ran was added; inconclusive means other falling curves, or compound fluorescence or quenching; inactive means flat or rising ratio curve;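 further: potency means the concentration at half of the fitted maximal effect; % of control where 0% means no effect; nearly all actives have a fitted effect of over 45% in size; -100% = wells without RanGTP and RCC1; the record marks most hits as doubtful in a second field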
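Rango (0.1 uM)–importin beta (0.25 uM) complex; RanGTP-RCC1 trigger; 45 min RT; CFP/YFP FRET read.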
GLA inh pH 4.5 – inhibitors of human alpha-galactosidase A at pH 4.5 | activity change, negative = inhibition, % at 105 µM | 230,000 tested, under 10 active | purified enzyme, 4-MU-alpha-Gal fluorescence, pH 4.5; inconclusive = small, poorly fitted or top-dose-only inhibition, or a rising curve; inactive = flat fitted curve, though single readings scatter; no compound was filed as active;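 further: 0% = full activity with enzyme and -100% = basal without enzyme; dose as in the result columns while the protocol names 77 µM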
Target sequence (P06280 whole entry, looked up): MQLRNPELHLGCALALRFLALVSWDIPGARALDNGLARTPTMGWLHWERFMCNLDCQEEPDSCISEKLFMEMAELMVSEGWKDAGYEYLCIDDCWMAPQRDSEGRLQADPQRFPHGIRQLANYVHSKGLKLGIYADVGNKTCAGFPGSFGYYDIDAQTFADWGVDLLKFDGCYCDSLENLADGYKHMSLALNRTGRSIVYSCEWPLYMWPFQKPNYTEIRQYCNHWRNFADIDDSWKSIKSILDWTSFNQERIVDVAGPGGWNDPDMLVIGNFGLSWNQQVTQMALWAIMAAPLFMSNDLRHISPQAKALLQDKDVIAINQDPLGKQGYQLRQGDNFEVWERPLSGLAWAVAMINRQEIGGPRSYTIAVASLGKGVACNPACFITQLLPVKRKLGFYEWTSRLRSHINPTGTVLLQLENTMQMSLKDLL
miR-21 FLuc – raises the signal of a miR-21 reporter; Potency, µM (series often up to 38.3 µM), without a hit: at the highest dose reporter change, positive = more light; AID 2288; HeLa miR-21 FLuc reporter, luciferase, 48 h; 340,000 tested, under 10 active; active = well fitted rising curve with a large enough effect; inconclusive = small, poorly fitted or top-dose-only effect; inactive = no such curve, though single readings can be large or run the other way;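 further: % of control where 0% means no effect; miR-21 action dims this reporter so a rising signal means less miR-21 action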
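Using DMEM plus 10% FBS, HeLa miR-21-FLuc cells are incubated with test compounds (final up to about 40uM) for 48 hours; firefly luciferase signal is then imaged following reagent-mediated lysis.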
Starred values were filed as active, the others as inactive; ? = inconclusive; / = not tested or not shown; & = joins results of further samples; [ ] = dose if it differs, or a comment.

Keys: A = Rango complex inh; B = Rango release inh; C = GLA inh pH 4.5; D = miR-21 FLuc
mol: O=C(O)c1ccc(NS(=O)(=O)Cc2ccc(Cl)c(Cl)c2)cc1
  A = -2.5%	B = 11%	C = /	D = /
mol: CC(=O)N1CCN(C(C)=O)c2ccccc21
  A = -1.1%	B = 3%	C = /	D = /
mol: COc1cc(C(=O)OCCCOC(=O)c2cc(OC)c(OC)c(OC)c2)cc(OC)c1OC
  A = -1.6%	B = 2%	C = /	D = -5%
mol: CCC1=C(OC(=O)N(CC)CC)N2C(=O)OC(=NCC3CC3)[C@]2(C)[C@H]2C1=CC[C@H]1C(=O)N(CC)C(=O)[C@H]12
  A = 5.4%	B = -17%	C = 0&1	D = 2%
mol: Cc1ccc(OCC(=O)Nc2ccc(S(=O)(=O)N3CCOCC3)cc2)c([N+](=O)[O-])n1
  A = -6.1%	B = 0%	C = 6	D = -2%
mol: O=C(/C=C/c1cccc([N+](=O)[O-])c1)NCCN1CCOCC1
  A = -2.0%	B = -9%	C = 7	D = 3%
mol: CC(=O)N/N=C(\C)c1cccc(NC(=O)c2cccs2)c1
  A = -0.9%	B = 20%	C = 1	D = -13%
mol: O=C(O)/C=C/c1cn(Cc2ccccc2)nc1-c1cccs1
  A = -4.8%	B = -14%	C = 0	D = -5%
mol: CCN(CC)S(=O)(=O)c1ccc(C(=O)NCCCn2ccnc2)cc1
  A = -1.7%	B = 7%	C = -11	D = 2%
mol: COc1cc2c3c(c1OC)C1(C=CC(=O)C=C1)CC3N(C(C)=O)CC2 (configuration not stated)
  A = -0.1%	B = 0%	C = 3	D = -10%
mol: CCS(=O)(=O)N1CCN(c2cc3c(cc2[N+](=O)[O-])n(C)c(=O)n3C)CC1
  A = 2.0%	B = 2%	C = 6	D = -1%
mol: O=[N+]([O-])c1ccc(-c2cnc(SCc3ccccc3Cl)[nH]2)cc1
  A = 9.6%	B = -17%	C = -4	D = 18%
mol: Cc1ccc(-c2nc(C(=O)NCCCN3CCOCC3)cc3c2[nH]c2ccccc23)cc1
  A = ?	B = -22%	C = /	D = 20%
mol: COC(=O)c1sc(N)nc1C(C)(C)C
  A = 2.4%	B = 22%	C = -10	D = 0%
mol: CCOc1cc(C(=O)OCC(=O)Nc2ccc(SC(F)F)cc2)cc(OCC)c1OCC
  A = -3.2%	B = -3%	C = 4	D = -8%
mol: CCCCn1c(O)c(N=NC(=O)Cn2c(C(F)(F)F)nc3ccccc32)c2ccccc21
  A = -0.6%	B = -1%	C = -3	D = 1%
mol: CCOC(=O)c1nnn(-c2nonc2N)c1CN(CC)CC
  A = 1.0%	B = -8%	C = -3	D = -1%
mol: CC1=CN2C(=NC(=O)CC2(C)C(=O)N(CC(=O)NC2CCCC2)Cc2ccc(Cl)cc2)C=C1 (configuration not stated)
  A = -1.2%	B = 9%	C = /	D = -2%
mol: NCCN1CCN(CC(=O)N2c3ccccc3C(=O)Nc3cccnc32)CC1
  A = 1.5%	B = -6%	C = /	D = /
mol: Cc1ccc(S(=O)(=O)NCCCNS(=O)(=O)c2ccccc2Br)cc1
  A = 0.8%	B = 12%	C = /	D = /
mol: COc1cc(/C=N/Nc2cccc(C)c2)ccc1OC(=O)c1cccs1
  A = -2.6%	B = 6%	C = -1	D = -49%
mol: CC1CCCCC12NC(=O)N(CC(=O)NCCc1ccc(F)cc1)C2=O (configuration not stated)
  A = 1.1%	B = -4%	C = /	D = /
mol: O=C(Cn1ncn2c(cc3ccccc32)c1=O)NCCCc1ccccc1
  A = -0.7%	B = 1%	C = /	D = -3%
mol: NC(=O)CCC(NS(=O)(=O)c1ccc(Cl)cc1)C(=O)NCc1ccccc1 (configuration not stated)
  A = /	B = /	C = 4	D = 4%
mol: CCOCc1[nH]c(=S)[nH]c(=O)c1Cc1ccc(OCC(C)C)cc1
  A = -12%	B = 15%	C = 1	D = -20%

Some of the entries so far, as comma-separated lines.
compound,Rango complex inh,Rango release inh,GLA inh pH 4.5,miR-21 FLuc
O=C(/C=C/c1cccc([N+](=O)[O-])c1)NCCN1CCOCC1,-2.0%,-9%,7,3%
CC(=O)N/N=C(\C)c1cccc(NC(=O)c2cccs2)c1,-0.9%,20%,1,-13%
O=C(O)/C=C/c1cn(Cc2ccccc2)nc1-c1cccs1,-4.8%,-14%,0,-5%
CCN(CC)S(=O)(=O)c1ccc(C(=O)NCCCn2ccnc2)cc1,-1.7%,7%,-11,2%

Whole records from above.
O=C(O)/C=C/c1cn(Cc2ccccc2)nc1-c1cccs1 across the screens: Rango complex inh = -4.8%; Rango release inh = -14%; GLA inh pH 4.5 = 0; miR-21 FLuc = -5%
COc1cc(C(=O)OCCCOC(=O)c2cc(OC)c(OC)c(OC)c2)cc(OC)c1OC across the screens: Rango complex inh = -1.6%; Rango release inh = 2%; GLA inh pH 4.5 = /; miR-21 FLuc = -5%

Additional results
Keys: A = Rango complex inh; B = Rango release inh; C = GLA inh pH 4.5; D = miR-21 FLuc
mol: O/N=C(\c1ccccc1)C(O)c1ccccc1 (configuration not stated)
  A = 2.3%	B = -2%	C = /	D = 2%
mol: O=C(CNc1cccc([N+](=O)[O-])c1)N/N=C/c1ccc([N+](=O)[O-])o1
  A = 7.4%	B = -17%	C = 4	D = 24%
mol: O=C(c1cccc(Cl)c1)N1CCN(C(=O)c2ccco2)CC1
  A = -0.8%	B = -14%	C = -2	D = 0%
mol: Cc1ccc(/C=C/C(=O)N2CCN(Cc3ccccc3)CC2)o1
  A = -0.1%	B = -22%	C = -2	D = -18%
mol: O=C(COC(=O)c1ccccn1)c1ccc([N+](=O)[O-])cc1
  A = -0.4%	B = -25%	C = /	D = -1%
mol: Cc1cc(Cl)c2oc(C(=O)N(C)Cc3cc(C)[nH]n3)c(C)c2c1
  A = -0.6%	B = 0%	C = /	D = -50%
mol: CC1CN(C(=O)CSc2nnc(CNC(=O)c3ccc(S(=O)(=O)N(C)C)cc3)o2)CC(C)O1 (configuration not stated)
  A = 1.0%	B = -14%	C = /	D = 2%
mol: CCOC(=O)C1=C(c2ccc(OC)cc2)OC(N)=C(C#N)C1c1cccnc1 (configuration not stated)
  A = 2.3%	B = -14%	C = -4	D = -2%
mol: CC(C)C(=O)NNc1ccc(C(F)(F)F)cn1
  A = 3.4%	B = 0%	C = -6	D = 3%
mol: Cc1c(NC(=O)/C=C/c2cn(-c3ccccc3)nc2-c2ccccc2)c(=O)n(-c2ccccc2)n1C
  A = -1.6%	B = 1%	C = -4	D = -2%
mol: CN(C)CC(C)(C)CNC(=O)C1CCN(Cc2ccccc2O)CC1
  A = -1.3%	B = -9%	C = -6	D = -4%
mol: Cc1nnc(SCC(=O)N2CCCCC2)n1CC1CCCO1 (configuration not stated)
  A = -0.2%	B = 2%	C = 0	D = -5%
mol: Cc1ccccc1-c1nc(CN2CCCC(C(=O)NCCCN3CCOCC3)C2)c(C)o1 (configuration not stated)
  A = -1.6%	B = 0%	C = -8	D = -9%
mol: CC(C)N(C(=O)[C@H]1C[C@H](CC(=O)NC(C)(C)C)C(=O)N2CCc3c([nH]c4cc(CCC(=O)N(C)C)ccc34)[C@]12C)C(C)C
  A = -4.8%	B = 0%	C = /	D = /
mol: O=C(NCCn1cc(SCc2ccccc2)c2ccccc21)c1c(F)cccc1F
  A = -2.6%	B = 2%	C = -12	D = -5%
mol: O=C1c2ccccc2C(=O)N1Cc1cnc(N2CCN(c3ccccc3)CC2)s1
  A = 2.4%	B = 1%	C = -1	D = -1%
mol: Cc1onc(-c2ccccc2Cl)c1C(=O)N1CCN(Cc2ccc3c(c2)OCO3)CC1
  A = -0.4%	B = 0%	C = 0	D = 2%
mol: Cc1ccc(CNC(=O)C2CCCN(S(=O)(=O)c3c(C)noc3/C=C/N(C)C)C2)cc1 (configuration not stated)
  A = ?	B = -17%	C = -2	D = 6%
mol: S=C(NCc1ccco1)NCC1CCCO1 (configuration not stated)
  A = 0.3%	B = 12%	C = 2	D = 4%
mol: COc1ccc(CC(=O)n2nc(-c3cccnc3)nc2N)cc1
  A = 0.8%	B = -13%	C = 1	D = -7%
mol: O=C(Nc1cccnc1)c1cnn2c(C(F)F)cc(C3CC3)nc12
  A = 1.9%	B = 2%	C = 6	D = -17%
mol: COc1cc(NC(=O)C2=C(N3CCOCC3)/C(=C\c3ccc(N(C)C)cc3)CCC2)cc(OC)c1OC
  A = ?	B = ?	C = -5	D = 20%
mol: Cc1ccsc1/C=N/Nc1cccc(C(=O)O)c1
  A = ?	B = -10%	C = -1[21.1 µM]	D = -43%
mol: CCOc1ccccc1CNCCNC(=O)c1nonc1N
  A = 4.4%	B = -2%	C = 4	D = -2%&2%
mol: COCCn1c(=O)c2cc3c(=O)n(CCOC)c(=O)c3cc2c1=O
  A = ?	B = -25%	C = -4	D = 1%
mol: Cc1ccccc1NC(=O)c1cc(=O)c2ccccc2o1
  A = -0.9%	B = 0%	C = -7	D = -29%
mol: O=C(O)Cc1c[nH]c2ccccc12
  A = 1.3%	B = -3%	C = /	D = /
mol: COC(=O)c1cc(C(=O)c2ccccc2)n2c(=O)/c(=C\N(C)C)sc12
  A = ?	B = -21%	C = -4	D = 8%
mol: C[C@H](NC(=O)OCc1ccccc1)C(=O)NNC(=O)[C@H](Cc1ccccc1)NC(=O)OC(C)(C)C
  A = -0.5%	B = 4%	C = -10	D = -2%
mol: CCOC(=O)N1CCN(Cc2nc3cc(NC(=O)CC(C)C)ccc3n2C)CC1
  A = ?	B = ?	C = /	D = -2%
mol: O=C(CSc1nc(O)cc(=O)n1-c1ccccc1)NC1CCCCC1
  A = -0.3%	B = 12%	C = -2	D = 6%
mol: Cc1[nH]nc(SCC(=O)NCc2ccccc2)c1[N+](=O)[O-]
  A = -4.5%	B = 4%	C = -17	D = -1%
mol: Cc1ccc(C)c(S(=O)(=O)NCc2ccc(C(=O)N3CC(C)OC(C)C3)cc2)c1 (configuration not stated)
  A = -1.0%	B = -3%	C = 0	D = -11%
mol: COc1ccc(/C(O)=C2/C(=O)C(=O)N(CCN3CCOCC3)C2c2ccc(C)cc2)cc1 (configuration not stated)
  A = ?	B = 1%	C = -2	D = -6%
mol: CCOc1cc(C)nc(NCCc2ccc(OC)c(OC)c2)n1
  A = -9.3%	B = 0%	C = -5	D = -6%
mol: CC(O)C(NS(=O)(=O)c1ccc2ccccc2c1)C(=O)OCC(=O)Nc1ccccc1OC(F)F (configuration not stated)
  A = -1.0%	B = -6%	C = /	D = /
mol: CC1=N/C(=C\c2ccc([N+](=O)[O-])cc2)C(=O)N1c1ccc(F)cc1F
  A = -0.5%	B = 15%	C = /	D = -3%
mol: COCCSc1ccccc1C(=O)Nc1ccc(Cl)cc1
  A = 1.3%	B = -9%	C = 2	D = -17%
mol: COCCN1C=C2C(=O)C(C)(OC(=O)CCc3ccccc3)C(=O)C=C2C=C1c1ccc(C#N)cc1 (configuration not stated)
  A = ?	B = -13%	C = 5&-2	D = 0%
mol: Cn1c(SCC(=O)N2CCCC2=O)nc2ccccc2c1=O
  A = -0.4%	B = 17%	C = /	D = /
mol: CC1CCCC2(C1)NC(=S)c1c(sc3c1CCCC3)N2 (configuration not stated)
  A = 2.1%	B = 1%	C = -4	D = -16%
mol: O=C(NC(=S)Nc1cccnc1)c1cc2ccccc2o1
  A = -2.2%	B = 15%	C = 1	D = -53%
mol: CCOC(=O)C1CN(S(=O)(=O)c2ccc(C)cc2)C1
  A = -0.8%	B = -14%	C = 6	D = -26%
mol: CCOc1ccc(C(=O)NCc2cccnc2)cc1
  A = 0.0%	B = 7%	C = 0	D = 1%

The list is partial; rates above refer to the full screens.
